Source: PubChem BioAssay (National Center for Advancing Translational Sciences (NCATS))
HSD17B inh: inhibitors of human HSD17B10 dehydrogenase; hit rate 7.6% among 75,000; Potency, µM (titrated, usually from 57.1 µM), without a hit: at the highest dose activity change, negative = inhibition, actives largely listed as inhibitors; recombinant HSD17B10, NADH fluorescence kinetic; many of its hits are not listed in these tables; Q99714; active = well fitted inhibition curve with a large enough effect; inconclusive = small, poorly fitted or top-dose-only effect; inactive = no such curve, though single readings can be large or run the other way;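 note: the protocol describes HADH2 (HSD17B10) and not the HSD17B4 of the title; nearly all actives have a fitted effect of over 70% in size; most hits overshoot -100% by far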
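Activity followed as NADH fluorescence increase (ex 360, em 450 nm) every 30 seconds for 4 min, using final 90 uM beta-hydroxybutyryl CoA and 1 mM NAD+. Recombinant His-tagged enzyme, 20 nM, pH 9.0 Tris buffer, 15 min compound preincubation.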
The depositor's hits bear a star; u = inconclusive; [ ] = dose if it differs, or a comment. % is set by controls: 0 for no effect and ±100 for the full control effect; potency is the fitted concentration of half-maximal effect.

SMILES,HSD17B inh
Clc1ccc(Cl)c(Nc2ccnc(SCc3ccccc3)n2)c1,3.2%[11.4 µM]
O=C1CN(C(=O)COC(=O)C2CC(=O)N(Cc3ccco3)C2)c2ccccc2N1 (stereo not drawn),-2.2%
O=C(c1cc(Br)ccc1O)c1cc(Br)ccc1O,-1.1%[11.4 µM]
NC(=O)c1ccccc1-c1nc(-c2ccccc2)no1,5.9%
O=C(c1ccc(C#CC2(O)CCCCC2)cc1)N1CCOCC1,-4.7%
CCn1cc(Br)c(C(=O)Nc2ccc(C(=O)OC(C)C)cc2)n1,-13.4%
COc1ccc(CCN(Cc2nc(-c3ccccc3)no2)Cc2nc(-c3ccccc3)no2)cc1OC,-17.8%
CO[C@@H]1COC(=O)C/C=C\[C@@H](C)[C@H](OC)COC(=O)[C@H](COCc2ccccc2)NC(=O)C/C=C\[C@H]1C,2.0%[11.4 µM]
COC(=O)[C@@]1(Cc2ccc(OC)cc2)[C@H]2c3cc(C(=O)N4CCCC4)n(Cc4cc(C)n(C)n4)c3C[C@H]2CN1C(=O)c1ccccc1,6.0%
CCOC(=O)C1=C(c2ccccc2)Nc2ncnn2C1c1ccccn1 (stereo not drawn),11.2%
COC(=O)C/C=C\[C@@H](C)[C@@H](/C=N\OC[C@@H](O)[C@H]1O[C@H]2OC(C)(C)O[C@H]2[C@@H]1O)NS(=O)(=O)c1ccc(C)cc1,5.8%[11.4 µM]
CCOC(=O)CN1C(=O)COc2ccc(Cl)cc21,7.3%
COc1cccc(-c2csc(N3CCN(S(=O)(=O)c4ccc(F)cc4)CC3)n2)c1,-10.1%
COCc1cc(C)nc2sc(C(=O)N3CCN(c4ccccc4)CC3)c(N)c12,1.3%
Nc1nn(S(=O)(=O)c2cccc3nsnc23)cc1-c1ccc(Br)cc1,-7.1%
Cc1cccn2c(=O)c3cc(C(=O)NCc4ccccn4)n(C)c3nc12,3.16µM*
Cn1c(=O)oc2cc(S(=O)(=O)N3CCN(C(=O)c4ccco4)CC3)ccc21,-5.8%
Cn1c(CCCNC(=O)c2ccccc2)nc2ccccc21,5.4%
COc1ccc(C(=O)Cn2c(N3CCOCC3)nc3c2c(=O)n(C)c(=O)n3C)cc1,6.0%
COC(=O)COc1ccc(S(=O)(=O)NCc2ccncc2)cc1,3.8%
c1ccc(-c2nn3c(-c4ccccc4)nnc3s2)cc1,0.1%
Cc1cnn(C(=O)c2oc3ccccc3c2C)c1,u
O=C(NCc1ccc2c(c1)OCO2)C1CCCN(S(=O)(=O)c2cccs2)C1 (stereo not drawn),6.0%
O=C1OC2(c3ccc(O)cc3Oc3cc(O)ccc32)c2c1c(-c1ccccc1)c(-c1ccccc1)c(-c1ccccc1)c2-c1ccccc1,3.98µM*
O=C(NC1CCCCCC1)C1c2ccccc2C(=O)N1CCCN1CCOCC1 (stereo not drawn),1.9%
O=C(Nc1cnc2ccccc2c1)c1cccc(-n2cnnn2)c1,u
CCOC(=O)c1cccc(NC(=O)CSc2nc3ccccc3c(=O)n2CC)c1,8.3%
N#Cc1cccc(NC(=O)N2CC[C@@]3(CCCN(C(=O)c4ccco4)C3)C2)c1,-6.4%
CCn1c(NC(=O)Nc2ccccc2OC)nc2ccccc21,-4.4%
CCCNC(=O)OC[C@@H]1O[C@H](CCO/N=C(\C)CCN2CCc3nc(-c4ccccc4)c(-c4ccccc4)cc3C2)C=C[C@@H]1Oc1ccc(OC)cc1,7.1%[11.4 µM]
CCCCn1c(=O)[nH]c(=O)c2c1nc(-c1ccncc1)n2CCOC,u
CCOc1ccc(S(=O)(=O)NCCC(=O)OC(C)C(=O)N2CCc3ccccc32)cc1 (stereo not drawn),1.9%
CC1(C)CC(=O)C2=C(C1)OC(N)=C(C#N)C21CCN(C(=O)OCc2ccccc2)CC1,2.4%
CCn1c2ccccc2c2cc(C3C(C#N)=C(C)NC(C)=C3C#N)ccc21,25.1µM*
CS(=O)(=O)N(Cc1ccco1)CC(O)Cn1c2ccccc2c2ccccc21 (stereo not drawn),-7.9%
CCOc1ccccc1N1CCN(S(=O)(=O)c2cccc3nsnc23)CC1,5.3%
Cc1ccc(S(=O)(=O)N(C)CCCC(=O)NCc2ccc3c(c2)OCO3)cc1,-7.2%
Cc1nc2ccc(-n3ccc(=O)cc3)cc2s1,8.2%
Cc1c(NC(=O)CC2CC(C)OC2=O)c(=O)n(-c2ccccc2)n1C (stereo not drawn),5.2%
CN(C(=O)COC(=O)c1nc(-c2ccccc2)n(-c2ccccc2)n1)C1CCS(=O)(=O)C1 (stereo not drawn),4.2%
C=CCn1c(COc2ccc(Cl)cc2)nnc1SCC(=O)NCC(=O)OCC,0.8%
COC(=O)c1ccccc1NC(=O)NCc1ccccn1,25.1µM*
CCOC(=O)c1cccc(NC(=O)CCS(=O)(=O)c2cccc3nsnc23)c1,-9.7%
O=S(CC(O)COCc1ccc(Cl)cc1)c1ccccn1 (stereo not drawn),4.5%
CCOC(=O)N1CCN(C(=O)CSc2nc3c(c(=O)n2-c2ccccc2OC)SCC3)CC1,-3.8%
CC(C)(C)NC(=O)c1ccc(NC(=O)C2COc3ccccc3O2)cc1 (stereo not drawn),5.7%
CCOC(=O)c1cnn(-c2nc(CC)nc3sc4c(c23)CCC4)c1N,u
Cc1ccc(S(=O)(=O)N(C)CC(=O)N2CCc3ccccc32)cc1,-7.7%
O=C(CN1CCN(Cc2ccc3c(c2)OCO3)CC1)N1CCc2[nH]c3ccccc3c2C1,2.0%
Cc1c(NC(=O)CCN2C(=O)c3ccccc3C2=O)c(=O)n(-c2ccccc2)n1C,3.2%
CC(C)c1nnc(NC(=O)CCC(=O)N2CCN(C3CCCCC3)CC2)s1,-2.4%
O=C(NCCN1CCN(c2ccccc2)CC1)c1cccn2c(=O)c3cc(Cl)ccc3nc12,9.8%
CC(C)COC(=O)C1C2C=CC3(CN(C(C)c4ccc(Br)cc4)C(=O)C13)O2 (stereo not drawn),-5.7%
O=C(NCc1ccco1)c1cccc(-c2nnc(-c3ccccc3)o2)c1,-4.3%
CCOC(=O)C1C(=O)CC(C)(O)C(C(=O)OCC)C1c1cccs1 (stereo not drawn),2.3%
COc1ccc2[nH]c(=O)c(C(c3nnnn3C(C)(C)C)N(Cc3ccco3)CC3CCCO3)cc2c1 (stereo not drawn),20µM*
CC(=O)Nc1ccc(SCC(=O)c2cc(C)n(Cc3cccs3)c2C)cc1,-10.0%
NS(=O)(=O)c1ccc(CNC(=O)NC2(c3ccccc3)CC2)cc1,10.5%
Cc1ccc(N(CC(O)CN2CCOCC2)S(=O)(=O)c2ccc3ccccc3c2)cc1 (stereo not drawn),-1.3%
CCCOC(=O)c1ccc(Oc2c(-c3ccc(OCC)cc3O)n[nH]c2C)cc1,-5.0%

Molecules shown so far containing bromine (4):
SMILES,HSD17B inh
O=C(c1cc(Br)ccc1O)c1cc(Br)ccc1O,-1.1%[11.4 µM]
CCn1cc(Br)c(C(=O)Nc2ccc(C(=O)OC(C)C)cc2)n1,-13.4%
Nc1nn(S(=O)(=O)c2cccc3nsnc23)cc1-c1ccc(Br)cc1,-7.1%
CC(C)COC(=O)C1C2C=CC3(CN(C(C)c4ccc(Br)cc4)C(=O)C13)O2 (stereo not drawn),-5.7%

Next part.
molecule	HSD17B inh
COc1ccc(NC(=O)C2C3C=CC(C3)C2C(=O)NCc2ccco2)cc1 (stereo not drawn)	8.2%
COc1ccc(S(=O)(=O)CCC(=O)O)cc1	7.6%
Cn1c(CSc2ncccn2)nnc1SCC(=O)N1CCCCC1	-0.6%
Cc1c(-c2ccco2)[n+](=O)c2c(n1[O-])CCC2	11.9%
O=C1C(Cl)=C(N2CCOCC2)C(=O)N1CCc1ccccc1	-2.3%
Cc1ccccc1N1CCN(c2ncnc3c2cnn3Cc2ccc(Cl)cc2)CC1	20µM*
CCOC(=O)c1[nH]c2ccc(F)cc2c1NC(=O)C1=COCCO1	-22.9%
Cc1cc(=O)oc2cc(OC(C)C(=O)O)c(Cl)cc12 (stereo not drawn)	31.6µM*
CC(C)(C)Cn1nc(-c2ccc(Cl)cc2)c2c(N)ncnc21	1.8%
CCCC(c1nnnn1Cc1ccc(OC)cc1)N1CCN(c2ccccc2)CC1 (stereo not drawn)	-6.6%
C=CCn1c(=O)c2ccccc2n2c(SCC(=O)c3ccccc3)nnc12	-9.3%
COc1cccc(C2=NOC(C(=O)Nc3cc(C)nn3-c3ccccc3)C2)c1OC (stereo not drawn)	-5.3%
CCC(Sc1nc2cc(OC)c(OC)cc2c2nc(C)nn12)C(=O)NCc1ccco1 (stereo not drawn)	0.0%
COc1ccccc1Nc1nc(C2(C)CCC(=O)O2)cs1 (stereo not drawn)	-11.2%
CC(C)(C)CNCCO	0.6%[11.4 µM]
CC(C)CN=C(N)N=C(N)N	13.8%[11.4 µM]
CCC(C)C1C(C#N)=C(N)OC2=C1C(=O)CC(C)(C)C2 (stereo not drawn)	2.2%
CC12C(=O)N(CCC(=O)O)C(=O)C1C1C=CC2C1 (stereo not drawn)	1.2%
Cc1nnc(SCC(=O)NCc2ccc(Cl)cc2)[nH]c1=O	-10.7%
CC(C)(C)OC(=O)N1CCC[C@H]1c1nnc(SCc2c(Cl)cccc2Cl)o1	-10.9%
N#Cc1c(/N=C/c2ccco2)sc2c1CCCCC2	-3.5%
COC(=O)Cn1c(=O)cnc2ccccc21	u
Cc1ocnc1C(=O)Nc1ccc(Cl)cc1	-22.9%
CN(C)c1ccc(-c2cncnc2N(C)Cc2ccco2)cc1	u
Cc1cc(=O)[nH]c(SC/C=C/c2ccccc2)n1	7.8%
COc1ccc(NS(=O)(=O)c2cc(C(=O)O)ccc2C)cc1	2.9%
CCOC(=O)CSc1cccc2cccnc12	31.6µM*
CCCCC(CC)COC(=O)c1ccc(N(C)C)cc1 (stereo not drawn)	31.6µM*
COC(=O)CCC(=O)Nc1ccc(Br)cc1	6.0%
COc1ccc(NC(=O)c2cc(C)on2)cc1OC	-23.6%
CCn1c(SCC(=O)NCc2ccco2)nnc1C(C)C	-14.2%
CC1Cc2nc(SCC(=O)NC3CCCCC3)n(C)c(=O)c2S1 (stereo not drawn)	-2.3%
Cc1cnc(CNc2ncncc2-c2cccc(C#N)c2)cn1	-10.8%
Cc1ccc(C(=O)NC(C)(COc2nonc2C)COc2nonc2C)cc1	-6.6%
O=C(NC1CCCC1)c1ccc(CS(=O)(=O)c2cccc(C(F)(F)F)c2)o1	4.3%
COC(=O)C(C)Sc1ncnc2c1nnn2-c1ccc(F)cc1 (stereo not drawn)	-1.4%
COc1ccc(NC(=O)c2oc3ccccc3c2C)c(OC)c1	u
CCOc1ccccc1NC(=O)CSc1nnc(Cc2cccn2C)n1-c1ccc(F)cc1	3.0%
O=C(Cn1cccc1C(=O)c1ccccc1)NCc1cccs1	-5.9%
CN(C)CCCN1C(=O)C(=O)/C(=C(/O)c2ccncc2)C1c1cccc(Br)c1 (stereo not drawn)	1.9%

Arranged by number of heavy atoms (lowest first): some entries from above.
molecule	HSD17B inh
CCOC(=O)c1[nH]c2ccc(F)cc2c1NC(=O)C1=COCCO1	-22.9%
COc1ccc(CCN(Cc2nc(-c3ccccc3)no2)Cc2nc(-c3ccccc3)no2)cc1OC	-17.8%
O=C1OC2(c3ccc(O)cc3Oc3cc(O)ccc32)c2c1c(-c1ccccc1)c(-c1ccccc1)c(-c1ccccc1)c2-c1ccccc1	3.98µM*

More structures follow.
molecule	HSD17B inh
C=CCN1CC(c2nc3ccccc3n2Cc2ccccc2)CC1=O (stereo not drawn)	-0.3%
CCN1C(=O)[C@H]2[C@H]3[C@H](O)[C@H](O)C/C(=N/OCC(C)C)[C@@H]3CC[C@@H]2C1=O	1.2%[11.4 µM]
O=C(Nc1cccc(Cl)c1)Nc1nccs1	-0.9%
Cc1ccc(CS(=O)(=O)CCC(=O)NCCCN2CCCC2)cc1	-1.1%
O=C(Cn1nc(C(F)(F)F)c2c1CCCC2)NC1CCCC1	-1.6%
COC(=O)c1cccc(NC(=O)CN2CCC(NC(=O)c3cc(OC)c(OC)c(OC)c3)CC2)c1	0.6%
CCCCCCn1c(CN2CCN(CCO)CC2)nc2c1c(=O)n(C)c(=O)n2C	u
C=CC(C)(O)CCCC(C)CCCC(C)CCCC(C)C (stereo not drawn)	-10.0%
CCOc1ccccc1NC(=O)C1=C(C)NC(=O)NC1c1cccc(OC)c1OC (stereo not drawn)	8.5%
Cc1ccc2cc(C)c(SCC#N)nc2c1	-0.5%
Cc1cc(C)c(NC(=O)C2CSCCS2)c(C)c1 (stereo not drawn)	11.2%
COc1ccc(CNC(=O)c2cccs2)cc1	-1.8%
COc1ccc(OC)c(-n2cnc3cc(C(=O)NCCCN4CCOCC4)ccc32)c1	6.1%
COC(=O)c1cc(Nc2cc(C)nc3ncnn23)cc(C(=O)OC)c1	-3.3%
Cc1cccc(-n2nnc(C(=O)NCc3ccccc3)c2N)c1	5.9%
O=C(CNS(=O)(=O)c1cccc2nsnc12)NC1CCCCC1	-2.5%
Cc1cc2c(c(=O)n1CCN(C)C)C(c1ccc(Br)cc1)C(C#N)=C(N)O2 (stereo not drawn)	-0.8%

3 records drawn at random from the list so far, as already listed:
molecule	HSD17B inh
CC(C)(C)OC(=O)N1CCC[C@H]1c1nnc(SCc2c(Cl)cccc2Cl)o1	-10.9%
O=C(NCc1ccc2c(c1)OCO2)C1CCCN(S(=O)(=O)c2cccs2)C1 (stereo not drawn)	6.0%
CCOC(=O)CSc1cccc2cccnc12	31.6µM*

A portion of the library; the hit share may differ from the screen's.
